KCNQ2 pot – enhances the rat KCNQ2 potassium channel; O88943; CHO-K1 KCNQ2, FluxOR thallium flux fluorescence; hits give high values; B-score at 10 µM; 310,000 tested, 0.54% active;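 active = fluorescence ratio B-score at least 3 SD of library B-scores, with initial fluorescence B-score within 3 SD, cut at about 5.3 in these data; same plate scores as AID 2156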;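 note: B-score of peak minus minimum over baseline fluorescence ratio after K+ and Tl+ stimulus; positive B-score means potentiation of KCNQ2 with more thallium influx and brighter signal; only the inactives scoring about 0 or higher are listed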
Target sequence (O88943 whole entry, looked up): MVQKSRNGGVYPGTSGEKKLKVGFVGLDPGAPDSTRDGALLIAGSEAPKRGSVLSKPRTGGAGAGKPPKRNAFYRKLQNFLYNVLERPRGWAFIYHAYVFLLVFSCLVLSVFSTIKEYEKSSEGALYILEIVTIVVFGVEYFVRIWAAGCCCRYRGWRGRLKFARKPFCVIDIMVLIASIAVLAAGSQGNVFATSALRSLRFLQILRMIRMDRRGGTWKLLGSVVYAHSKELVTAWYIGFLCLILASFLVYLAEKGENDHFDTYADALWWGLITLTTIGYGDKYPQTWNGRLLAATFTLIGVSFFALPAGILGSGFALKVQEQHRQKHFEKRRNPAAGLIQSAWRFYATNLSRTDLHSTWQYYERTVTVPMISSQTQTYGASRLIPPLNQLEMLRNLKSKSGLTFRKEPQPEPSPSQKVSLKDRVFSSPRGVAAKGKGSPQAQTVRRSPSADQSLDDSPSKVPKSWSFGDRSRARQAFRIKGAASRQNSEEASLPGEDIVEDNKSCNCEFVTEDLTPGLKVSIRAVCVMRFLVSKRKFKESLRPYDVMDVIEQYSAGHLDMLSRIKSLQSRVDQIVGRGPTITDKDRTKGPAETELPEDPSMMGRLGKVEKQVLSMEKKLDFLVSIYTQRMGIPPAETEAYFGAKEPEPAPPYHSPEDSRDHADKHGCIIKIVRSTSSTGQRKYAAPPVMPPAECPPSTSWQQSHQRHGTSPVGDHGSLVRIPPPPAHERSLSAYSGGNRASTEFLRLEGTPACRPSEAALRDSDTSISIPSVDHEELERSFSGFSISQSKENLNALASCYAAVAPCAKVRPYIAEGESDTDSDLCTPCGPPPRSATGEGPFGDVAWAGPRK
KCNQ2 pot baseline – second read-out of KCNQ2 pot, no call of its own (marks repeat the call); B-score; compound at 10 µM; measured here: initial fluorescence intensity artifact check;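 brightness before thallium and not channel activity; 0 = typical well and far values either way flag optical interference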
Numbers without * were called inactive; / = not tested or not shown. Only part of the results is shown. The share of hits here may be higher or lower than overall.

KCNQ2 pot | KCNQ2 pot baseline | Compound
0.28 | -0.83 | Cc1ccc(-n2c(SCC(=O)N3CCCc4ccccc43)nnc2-c2cccnc2)c(C)c1
0.9 | 0.65 | Cc1ccc(NC(=S)N2CCC(NC(=O)c3cccc(F)c3)CC2)cc1
0.25 | 0.22 | COc1ccccc1N(CC(=O)N1CCOCC1)S(C)(=O)=O
0.45 | -1.3 | Cc1cccnc1NC(=S)NC(=O)c1oc2ccccc2c1C
0.1 | 0.03 | CC/C(=N\NC(N)=O)c1ccc(OC(F)F)cc1
0.33 | -0.24 | COc1cc([N+](=O)[O-])cc(/C=N/NC(=O)c2ccc(NC(=O)c3ccc(C)cc3)cc2)c1O
1.65 | 1.04 | COc1ccc(CN2CCNC(=O)C2CC(=O)NCC2CCOCC2)cc1C (stereo not given)
0.71 | -0.05 | O=C(N/N=C/c1cccnc1)c1ccc(F)cc1
1.29 | -1.65 | Cc1cc(C)c(C)c(S(=O)(=O)N2CCN(C(=O)c3ccco3)CC2)c1C
1 | 2.33 | COc1ccccc1CCC(=O)OCc1csc(CC(=O)Nc2ccccc2C)n1
1.78 | -1.83 | O=C(O)C1CCC(c2ccc(-c3ccccc3)cc2)CC1 (stereo not given)
1.68 | 0.13 | CC1CN(C(=O)c2cc3c(s2)CCC3)CC(C)O1 (stereo not given)
0.02 | -1.27 | N#CC1=C(N)n2c(s/c(=C\c3ccco3)c2=O)=C(C#N)C1c1ccco1 (stereo not given)
0.21 | -3.19 | Nc1[nH]c(=O)[nH]c(=O)c1N=Nc1ccccc1Cl
0.81 | 1.35 | CN(C)S(=O)(=O)c1ccc(NC(=O)c2ccc(Br)o2)cc1
1.42 | -1.11 | COC(=O)C1=C(C)NC(=O)NC1c1ccc(OCC(=O)N2CCCCC2)cc1 (stereo not given)
0.01 | 1.1 | Cc1nc(C(=O)N(C)C)nn1-c1cc(Cl)cc(Cl)c1
10.5* | 3.16* | CCOC(=O)Cc1csc(SCC(=O)NC(C)C23CC4CC(CC(C4)C2)C3)n1 (stereo not given)
1.52 | 0.42 | O=C(c1ccco1)N1CCN(Cc2nnnn2CCc2ccccc2)CC1
1.6 | -1.55 | S=C(NCc1ccccc1)N/N=C/c1cccs1
0.71 | -3.44 | CCCCn1c(N)c(N(CC(C)C)C(=O)Cc2ccc3c(c2)OCCO3)c(=O)[nH]c1=O
1.09 | 2.02 | COc1ccc(-c2nnn(CC(=O)N(CCN3CCOCC3)C(C(=O)NC3CCCCC3)c3ccco3)n2)cc1 (stereo not given)
0.14 | 0.59 | CS(=O)(=O)c1ccccc1C(=O)Nc1ccccc1Cc1ccccc1
0.81 | 0.22 | CC(C)(C)OC(=O)NCCCC(CCCNC(=O)OC(C)(C)C)C(=O)O
0.16 | -0.61 | Nc1nonc1N/N=C\c1ccccc1
0.03 | -0.78 | CC(C)CC(NC(=O)C1CCCCC1)C(=O)NCc1ccccn1 (stereo not given)
0.93 | 1.92 | N#Cc1c(NC(=O)C2CC=CCC2C(=O)O)sc2c1CCCCCC2 (stereo not given)
0.32 | 0.03 | Cn1nc(C(=O)NCc2ccc(F)cc2)c2ccccc2c1=O
0.37 | -1.58 | Cn1cc(/C=C(\NC(=O)c2ccccc2Cl)C(=O)NCCN2CCOCC2)c2ccccc21
0.65 | -0.23 | Cc1cc(C)nc(N2CCCC(C(=O)NC3CC3)C2)n1 (stereo not given)
0.01 | -0.14 | CCC(=O)Nc1ccc(S(=O)(=O)N2CCC(c3nc4ccccc4[nH]3)CC2)cc1
0.96 | -0.73 | COc1nnc(-c2ccc(C)c(S(=O)(=O)NC(C)(C)CO)c2)c2ccccc12
0.63 | -1.59 | COc1ccc(OC)c(C(O)c2nc3ccccc3n2C(C)C)c1 (stereo not given)
0.46 | -1.55 | COc1ccc(NC(=O)CSc2nncn2N)c(OC)c1
1.06 | -0.71 | CCOC(=O)CCNC(=O)N1CCCC(CCC(=O)N(C)CCc2ccccn2)C1 (stereo not given)
0.07 | 0.91 | O=C1CC(N(O)c2ccccc2)C(=O)N1Cc1ccccc1 (stereo not given)
1.22 | 0.01 | CC(=O)Nc1cccc(Cn2cccn2)c1
0.08 | 0 | O=C1CCCN1c1ccc(S(=O)(=O)NCc2ccco2)cc1
1.07 | 0.39 | N#CCCN(Cc1cccnc1)C(=S)Nc1ccc(OC(F)F)cc1
0.02 | -1.44 | CC1CN(C(=O)/C=C/c2ccc([N+](=O)[O-])s2)CC(C)O1 (stereo not given)
0.43 | -0.85 | Cc1ccc(C(=O)N2CC(=O)NC(=O)C2)cc1
2.65 | -0.12 | O=C(Cn1c(C(F)(F)F)nc2ccccc21)N/N=C/c1ccco1
0.38 | -0.25 | CCOC(=O)c1nc(Nc2ccc(Nc3ccccc3)cc2)c2ccccc2n1
0.17 | -0.27 | CCOC(=O)C1CCN(S(=O)(=O)c2c(C)noc2C)CC1
1.07 | -0.57 | CCC(CC)C(=O)Nc1ccc(Cl)c(Cl)c1
0.26 | 2.16 | CCOC(=O)C1=C(C)NC(SCC(=O)O)=C(C#N)C1c1ccco1 (stereo not given)
1.35 | 0.56 | O=C(O)[C@H](Cc1ccccc1)NC(=O)N1CCOCC1
0.99 | -1.01 | Nc1cc(=O)[nH]c(=O)n1CCCc1ccccc1
0.22 | -0.92 | COc1ccc(NC(=O)c2cc(S(=O)(=O)N3CCCCC3)c[nH]2)cc1
1.12 | 0.92 | CCCCNc1c([N+](=O)[O-])cc(C(=O)O)cc1[N+](=O)[O-]

4 records drawn at random from the list so far:
KCNQ2 pot | KCNQ2 pot baseline | Compound
1.07 | -0.57 | CCC(CC)C(=O)Nc1ccc(Cl)c(Cl)c1
0.08 | 0 | O=C1CCCN1c1ccc(S(=O)(=O)NCc2ccco2)cc1
1.12 | 0.92 | CCCCNc1c([N+](=O)[O-])cc(C(=O)O)cc1[N+](=O)[O-]
2.65 | -0.12 | O=C(Cn1c(C(F)(F)F)nc2ccccc21)N/N=C/c1ccco1

Compound profiles (already shown):
Entry for `Nc1cc(=O)[nH]c(=O)n1CCCc1ccccc1` = KCNQ2 pot: 0.99; KCNQ2 pot baseline: -1.01
Entry for `CCOC(=O)C1CCN(S(=O)(=O)c2c(C)noc2C)CC1` = KCNQ2 pot: 0.17; KCNQ2 pot baseline: -0.27
Entry for `CC(=O)Nc1cccc(Cn2cccn2)c1` = KCNQ2 pot: 1.22; KCNQ2 pot baseline: 0.01

More records:
KCNQ2 pot | KCNQ2 pot baseline | Compound
0.34 | -0.78 | CCN(CC)CC(=O)Nc1scc2c1c(=O)oc1ccccc12
1.16 | -2.26 | Cc1ccccc1NC(=O)C1CCCN(C(=O)NCc2ccccc2)C1 (stereo not given)
0.15 | -1.64 | CC(C)=CCN1CCN(Cc2cccc3c2OCO3)CC1CCO (stereo not given)
0.71 | -0.25 | C=C(C)CSc1nnc([C@@H]2CCCN2)o1
0.69 | -0.77 | COc1ccc(CCNC(=O)Cn2c(=O)n(-c3ccc(C)c(F)c3)c(=O)c3sccc32)cc1OC
1.64 | 0.1 | CCOC(=O)Cc1nnc(NC(=O)C(CC)Sc2nncn2C)s1 (stereo not given)
1.18 | / | CC(=O)Nc1c(I)c(NC(C)=O)c(I)c(C(=O)O)c1I
0.45 | -0.1 | C/C(=N\N=C1\NC(=O)CC(C(=O)O)S1)c1ccc(F)cc1 (stereo not given)
1.43 | 0.09 | CC(C)C(NC(=O)c1ccc(Cl)cc1)C(=O)NCC1CCCO1 (stereo not given)
1.79 | 1.04 | CCCCN(C(=O)c1cc(Cl)nc2ccccc12)c1c(N)n(Cc2ccccc2)c(=O)[nH]c1=O
1.82 | 0.07 | CS(=O)(=O)N1CCN(C2CCN(Cc3ccccc3)CC2)CC1
0.01 | -0.04 | CS(=O)(=O)c1ccc(Sc2nc3ccccc3s2)c([N+](=O)[O-])c1
2.27 | 0.61 | O=C(/C=C/c1ccco1)NC1=NCCS1
0.85 | 0.55 | CCOC(=O)C1CCN(S(=O)(=O)c2ccc(NC(=O)OC)cc2)CC1
0.09 | 0.68 | O=C(CCC(=O)N1CCN(C(=O)c2ccco2)CC1)c1ccc(F)cc1
0.02 | -0.33 | CCOC(=O)Nc1cccc(Nc2ccccc2)c1
0.25 | 0.05 | O=C1c2ccc3c4c(ccc(c24)C(=O)N1c1ccc2ccccc2c1)CC3
0.59 | 0.96 | O=C1CCCC2=C1C(c1ccc(O)cc1)c1c(ccc3ccccc13)N2 (stereo not given)
0.45 | -0.76 | CC(Sc1nnc(-c2ccccc2F)n1N)C(=O)NCC1CCCO1 (stereo not given)
0.14 | -0.55 | Cc1cc(=O)oc2cc(OCC(=O)N/N=C/c3cc([N+](=O)[O-])ccc3O)ccc12
0.06 | -0.03 | CCC(C)NC(=O)C(Cc1ccccc1)n1cccc1 (stereo not given)
1.09 | -1.13 | COc1ccc(CC(=O)NCc2ccco2)cc1OC
1.05 | 0.02 | COc1ccc(NCC(O)COc2ccc(C(C)(C)C)cc2)cc1 (stereo not given)
0.27 | 0.56 | C[N+](C)(C)CC(=O)N1CCN(c2ccc3ccccc3n2)CC1
1.97 | -1.21 | COc1ccccc1NC(=O)CN1C(=O)C2(OCCCO2)c2ccccc21
1.25 | 0.64 | O=C(Cn1nc(-c2nn(CC(=O)c3ccccc3)c3[n+]2CCCCC3)[n+]2c1CCCCC2)c1ccccc1
0.06 | -0.43 | Cc1ccc(NC(=O)c2sc(=S)n(-c3cc(C)ccc3F)c2N)cc1
0.33 | -0.84 | Cc1cc([N+](=O)[O-])nn1CC(=O)NCc1nc2ccccc2[nH]1
1.36 | -0.4 | CC1Cc2ccccc2N1C(=O)CCNS(=O)(=O)c1cccc2nsnc12 (stereo not given)
1.21 | 0.94 | O=C(NCCCN1CCOCC1)C(=O)NCc1ccco1
0.92 | -0.91 | O=C(CCl)N(CCCNC(=O)C(F)(F)F)c1ccc([N+](=O)[O-])cc1
0.1 | -0.03 | C/C(=N/NS(=O)(=O)c1ccc(Cl)cc1)c1cccc(NC(=O)c2ccc(Cl)cc2Cl)c1
0.03 | 1.73 | COc1cc(NC(=O)CSc2nc(C)c(C)c(C)n2)c(C)cc1[N+](=O)[O-]
0.72 | 1.39 | CN(C)CCn1cnc2c1c(=O)[nH]c(=O)n2Cc1ccccc1
0.04 | -0.56 | CSc1nn2cc(CCN3CCOCC3)c(-c3ccc(F)cc3)nc2c1C#N
0.13 | 0.19 | COc1ccc(C(=O)C2CCCN(C(=O)c3csc(C(C)=O)c3)C2)c(C)c1 (stereo not given)
0.79 | 0.9 | CCOc1cc2[nH]c(=O)n(CCCCC(=O)NCc3ccco3)c(=O)c2cc1OCC
1 | 0.07 | COc1ccc(-c2noc(CCC(=O)Nc3cccc(C)c3)n2)cc1
2.52 | 0.31 | Cc1cc2ncn(CS(C)(=O)=O)c2cc1C
0.14 | 0.13 | Cc1nc(NC(=O)C(Cl)Cl)sc1C(=O)N(C)C
0.71 | 1.06 | Nc1nc(-c2ccco2)nc(N2CCCCC2)n1
0.03 | -0.59 | Cc1cc([N+](=O)[O-])c(C)cc1-c1ccc(/C=N/n2cnnc2)o1
0.84 | -1.05 | Cc1cc(C(C)(C)C)cc(C)c1COC(=O)C1CCC(=O)N1 (stereo not given)
0.62 | -0.08 | O=C(O)C1CCN(C(=O)c2ccccc2N2C(=O)[C@@H]3Cc4c([nH]c5ccccc45)C(c4cccc(Cl)c4)N3C2=O)CC1 (stereo not given in full)
0.06 | 0.74 | C=CCNC(=O)/C(=C\c1ccc2c(c1)OCO2)NC(=O)c1ccc(Br)cc1
0.83 | -0.1 | CCOC(=O)c1cc2c(ccc3nc(C)c(C)c32)[nH]c1C
0.36 | 0.1 | COCCN(CC(=O)NCc1ccc(F)cc1)C(=O)CCC(=O)Nc1nccs1
0.24 | 0.09 | Cc1ccc(C)c(NC(=O)CSc2nc3ccccc3nc2N2CCOCC2)c1
0.2 | -0.31 | CCc1ccc(/C=C2/SC(=S)N(CCC(=O)Nc3ccc(C(=O)O)cc3)C2=O)cc1
1.02 | -2.31 | CCOc1ccc(N=C2NC(=O)S/C2=C\c2ccc(O)cc2)cc1

(further entries)
KCNQ2 pot | KCNQ2 pot baseline | Compound
0.22 | -0.47 | Cn1cc([N+](=O)[O-])c(C(=O)NC2CCCC2)n1
0.05 | -0.29 | CC(=O)Nc1cccc(-n2nnc(SCC(=O)Nc3ccccc3)n2)c1
0.89 | -1.69 | O=C1CC(N2CCN(C3CCc4ccccc4C3)CC2)C(=O)N1c1ccccc1 (stereo not given)
1.25 | 1.19 | CCCCCC1CCC(C(=O)NNC(=S)NCC)CC1 (stereo not given)
0.72 | -0.07 | CC1CN(C)C(C)CC1OC(=O)C(c1ccccc1)c1ccccc1 (stereo not given)
0.27 | 0.03 | Cc1cccc(NC(=O)C2CCCN2S(=O)(=O)c2ccc3c(c2)n(C)c(=O)c(=O)n3C)c1 (stereo not given)
0.47 | 0.65 | O=C(COc1cccc2c1CCNC2=O)NC1CCCCC1
0.07 | -0.78 | Cc1nn2c(-c3ccncc3)ccnc2c1Br
1.64 | 0.36 | Cc1ccc(C(=O)OCC(=O)NN2C(=O)NC3(CCC(C)CC3)C2=O)cc1 (stereo not given)

3 of these compounds, reformatted:
COc1ccc(-c2nnn(CC(=O)N(CCN3CCOCC3)C(C(=O)NC3CCCCC3)c3ccco3)n2)cc1 (stereo not given)
- KCNQ2 pot: 1.09
- KCNQ2 pot baseline: 2.02
CC(C)(C)OC(=O)NCCCC(CCCNC(=O)OC(C)(C)C)C(=O)O
- KCNQ2 pot: 0.81
- KCNQ2 pot baseline: 0.22
O=C(O)[C@H](Cc1ccccc1)NC(=O)N1CCOCC1
- KCNQ2 pot: 1.35
- KCNQ2 pot baseline: 0.56

Source: PubChem (Johns Hopkins Ion Channel Center)
